Screens: PubChem BioAssay, several laboratories
PABP FP inh: PABP poly(A) RNA binding inhibitors, primary screen, biochemical, fluorescence polarization, uHTS | inhibition, % at 35 µM | hit rate 1% among 290,000 | AID 2014, 2009;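 active = 50% or more with normal probe brightness, or confirmed in later tests; about a fifth of its hits are not listed in these tables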;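 note: calls also rest on retests at 20 µM and on dose response follow-up; controls were probe without protein and protein plus probe with vehicle; some compounds called inactive have numbers as strong as hits; many hits fall short of the cut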
Target sequence (P11940 whole entry, looked up): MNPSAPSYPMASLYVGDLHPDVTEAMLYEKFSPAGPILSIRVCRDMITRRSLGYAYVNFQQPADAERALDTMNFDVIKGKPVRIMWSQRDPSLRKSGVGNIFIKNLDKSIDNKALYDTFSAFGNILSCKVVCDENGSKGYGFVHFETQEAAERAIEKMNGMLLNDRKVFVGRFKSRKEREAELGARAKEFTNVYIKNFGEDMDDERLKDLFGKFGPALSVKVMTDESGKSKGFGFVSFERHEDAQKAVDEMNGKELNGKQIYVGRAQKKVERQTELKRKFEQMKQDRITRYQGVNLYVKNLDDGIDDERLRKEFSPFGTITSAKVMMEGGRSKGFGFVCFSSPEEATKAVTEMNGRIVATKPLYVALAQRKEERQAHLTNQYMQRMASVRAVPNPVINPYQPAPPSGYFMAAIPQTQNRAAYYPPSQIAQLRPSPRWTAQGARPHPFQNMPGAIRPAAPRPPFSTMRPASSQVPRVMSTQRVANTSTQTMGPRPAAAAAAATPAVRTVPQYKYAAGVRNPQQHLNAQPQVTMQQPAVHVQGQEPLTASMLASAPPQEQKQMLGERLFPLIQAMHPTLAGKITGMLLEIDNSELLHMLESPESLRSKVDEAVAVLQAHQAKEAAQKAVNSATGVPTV
CSC inhib: cancer stem cell viability inhibitors, primary screen, luminescence. AID 2717, 2010. inhibition, % at 7.5 µM. hit rate 1.1% among 300,000. cancer stem cell-like cells viability;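 active = mean at 75% or more and at least half the replicates too; tested in HMLE shEcad cells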;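 note: 0% = median of negative and 100% = median of positive control wells; the first replicate is given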
MT1-MMP act inh: blockers of MT1-MMP proenzyme processing, primary screen, HT1080 RFP-PRO-GFP cells, GFP/RFP fluorescence; GFP/RFP ratio change, % at 20 µM; AID 651647, 2012; GFP/RFP ratio fluorescence, overnight; percent of plate control window, DMSO zero; Matrix metalloproteinase-14 (Homo sapiens), P50281; hit rate 0.061% among 360,000;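 active = GFP/RFP ratio change of at least 30% with cell ATP level not reduced by more than half and red fluorescence within 50% of control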; note: strong numbers were not always called active
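Material: RFP-PRO-GFP reporter HT1080 cells. Dosing: single-point 20 µM compound, 1% DMSO. Controls: DMSO and RFP-L50D-GFP cell wells. Timing: cells overnight before dosing, compound overnight, 37 °C, 5% CO2. Measure: GFP/RFP fluorescence ratio.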
Env fusion inh: inhibitors of HIV-1 Env-driven cell-cell fusion, primary screen, HeLa-JRFL effector, CEM21 target cells, luciferase | inhibition, % at 12.3 µM | hit rate 1.1% among 360,000 | AID 651610, 2012;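 active = mean replicate inhibition score of at least 50 and every replicate individually at or above 50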;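 note: 0% = plate neutral controls and 100% = maraviroc near 300 nM; one replicate is shown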
Rce1 inh: yeast Rce1p protease inhibitors, primary screen, biochemical, fluorescence, cell-free homogeneous; yeast membranes, quenched prenylated peptide cleavage fluorescence; hit rate 0.27% among 290,000; AID 2563, 2010; calls only; CAAX prenyl protease 2 (Saccharomyces cerevisiae (strain ATCC 204508 / S288c)), Q03530;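 active = fall in fluorescence gain of 50% or more versus controls, with final raw signal at or below 3038400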;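 note: plate controls were neutral control wells for no effect and wells lacking membranes for full effect; tested at 10 µM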
Yeast UUG start: modulators of yeast start codon fidelity, primary screen, whole organism, S. cerevisiae, single point, plate reader; S. cerevisiae UUG-firefly luciferase reporter, luminescence/redox ratio; activity score, % at 18.7 µM; hit rate 0.13% among 350,000; AID 602363, 2012;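 active = replicate mean at a twofold rise or more, about +100% in these data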;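 note: firefly luciferase made from a UUG start codon reports start codon fidelity; reporter light over untreated wells divided by growth signal over untreated wells; some hits fall short of that in this replicate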
eIF4H FP inh: human eIF4H binding inhibitors, primary screen, translation initiation inhibitor project, biochemical, uHTS, fluorescence polarization | hit rate 0.94% among 290,000 | eIF4H fluorescence polarization binding assay | inhibition, % at 35 µM;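 active = 50% or more with normal probe brightness, or confirmed in later tests; about a fifth of its hits are not listed in these tables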;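 note: calls also rest on retests at 20 µM and on dose response follow-up; 0% = protein and probe with vehicle and 100% = probe without protein; strong numbers were not always called active; many hits fall short of the cut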
eIF4H FP inh retest: further read-out of eIF4H FP inh, marked with its call; inhibition, %; compound at 20 µM; confirmation average;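 mean of two retest wells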
PABP FP inh retest: also measured in PABP FP inh; calls as there; inhibition, %; compound at 20 µM; confirmation repeats;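 mean of two retest wells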
MT1-MMP act inh RFP: further read-out of MT1-MMP act inh, marked with its call; RFP signal change, %; measured here: RFP expression control read;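 0 = vehicle wells; hits needed this value within 50% of zero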
* = called active by the depositor; i = inactive; · = no result given; & = joins results of further samples; [ ] = dose if it differs, or a comment.

SMILES	PABP FP inh	CSC inhib	MT1-MMP act inh	MT1-MMP act inh RFP	Env fusion inh	Rce1 inh	Yeast UUG start	eIF4H FP inh	others
CCOC(=O)c1[nH]cnc1C(=O)N1CCN(C(=O)OC(C)(C)C)CC1	·	-30	-4	5	0	·	6	·
CN(C)S(=O)(=O)c1cc(NC(=O)COC(=O)C2CSC3(C)CCC(=O)N23)ccc1Cl (stereo unspecified)	-5	3	3	7	-14	i	7	-2
C=CCNc1nc(NCCOc2ccccc2Cl)c2sc(-c3ccccc3)cc2n1	·	·	-5	-14	18	·	-13	·
Nc1ccc(S(=O)(=O)Nc2ccc(S(N)(=O)=O)cc2)cc1	9	-10	-3	6	·	i	·	-3
O=C(CSc1n[nH]c(=O)[nH]c1=O)Nc1c(Cl)cc(Cl)cc1Cl	·	-13	2	2	-28	·	-9	·
C=C/C(C)=C/C[C@H]1C(=C)CCC2[C@](C)(C(=O)O)CCC[C@@]21C (stereo partly specified)	·	-13	1	-3	·	·	-14	·
Cc1ccc(CC(NC(=O)c2ccc(C)cc2)C(=O)O)cc1 (stereo unspecified)	·	·	4	7	-1	·	-23	·
CCc1noc(C)c1C(=O)Nc1nc2c(F)cc(F)cc2s1	·	-1	-3	-7	-10	·	-13	·
COc1cc(OC)nc(Oc2ccccc2/C=N/O)n1	·	-8	-1	-2	15	i	·	·
COCCN(C(=S)Nc1ccc(C)c(C)c1)C(C)c1ccco1 (stereo unspecified)	-1	6	5	0	-4	i	-25	-9
CCOc1ccc(OCCCC(=O)NNC(=O)c2ccncc2)cc1	·	-9	-2	-1	·	i	-10	·
Cc1c(S(=O)(=O)N2CCC(C)CC2)c(=O)n(C)c(=O)n1C	·	-3	0	4	1	i	-15	·
Cc1ccc2nc3ccc(N4CCCCCCC4)nn3c(=O)c2c1	0	-13	9	-8	-222	i	1	-6
CC(C)c1ccc(/C=N\NC(=O)c2ccc(Cn3cccn3)o2)cc1	-2	1	8	3	·	i	-22	6
O=C(N/N=C/c1ccc2c(c1)OCO2)C(O)c1ccccc1 (stereo unspecified)	-1	-6	2	6	3	i	·	-10
COc1cc(C=O)c(-c2c(C=O)cc(OC)c3c2OCO3)c2c1OCO2	-7	-16	3	0	5	i	-21	5
CC(=O)N1CCc2cc(S(=O)(=O)CCC(=O)Nc3c(C)n(C)n(-c4ccccc4)c3=O)ccc21	-13	-8	0	2	·	i	-17	-3
Cc1ccc(C)c2c1N(Cc1ccccc1)C(=O)C21OCCO1	-6	10	0	-1	17	i	-24	-9
CCCNC(=O)NC(=O)CN1C(=O)NC(C)(c2ccc(C)cc2)C1=O (stereo unspecified)	-4	-8	-4	-1	25	i	-2	-3
CN1CCCC(OC(=O)CCCC(=O)OC2CCCN(C)C2)C1 (stereo unspecified)	-8	-6	4	3	·	i	-20	-11
O=C(O)CC1c2ccccc2CCN1S(=O)(=O)c1ccc(F)cc1 (stereo unspecified)	-6	-7	0	9	14	i	-5	3
CCOc1ccccc1NC(=O)CSc1cn[nH]n1	·	-7	3	-3	-19	i	-13	·
COC(=O)c1c(C)[nH]c(/C=N/Nc2ccccc2)c1C	-3	-3	1	4	-378	i	-22	-3
CC(O)c1n(C)c(Cl)c[n+]1C (stereo unspecified)	65*	-12	-2	3	-108	i	-25	0	eIF4H FP inh retest=9;PABP FP inh retest=90*
CCCCc1c(O)nc(SCCN(C)C)n(-c2ccccc2)c1=O	-13	·	-1	-3	-12	i	-5	-14

(cont.)
SMILES	PABP FP inh	CSC inhib	MT1-MMP act inh	MT1-MMP act inh RFP	Env fusion inh	Rce1 inh	Yeast UUG start	eIF4H FP inh	others
CC(C)(C)c1nnc(NC(=O)c2cc(-c3ccccc3)nc3ccccc23)s1	-11	·	-3	-5	-104	i	-23	-5
COc1ccccc1S(=O)(=O)Cc1ccc(C(=O)NCc2cccs2)o1	2	-9	3	0	8	i	-11	-2
Cc1cccc(OCC(=O)N2CCN(C(=O)c3ccco3)CC2)c1	-10	-10	0	1	2	i	·	-5
C#Cc1ccc([C@@H]2C=C(C(=O)OCC=C)O[C@H](OCC)[C@H]2CCCO)cc1	-1	20	-7	-4	8[16.7 µM]	i	-6&14	88*	eIF4H FP inh retest=70*;PABP FP inh retest=38
COc1ccc(S(=O)(=O)N2CCOCC2)cc1NC(=O)Cc1ccccc1Cl	-8	-8	6	4	12	i	·	-2
CCOC(=O)c1cc(NC(=O)C2CCCO2)cc(C(=O)OCC)c1 (stereo unspecified)	15	-6	0	-1	-7	i	-17	1
CN(CCOc1ccccc1)C(=S)Nc1ccc(OC(F)F)cc1	-5	-7	3	3	6	i	-26	-9
CC(C)(C)[C@@H]1COC(=O)[C@H](Cc2ccc(F)cc2)CC/C=C\C[C@H](CC(=O)N(CCO)Cc2ccccc2)C(=O)N1	·	·	12	-7	28	·	33	·
COc1cccc(CN2CCN(c3nc4nonc4nc3N3CCCCC3)CC2=O)c1	-2	-15	-1	-4	5	i	·	-8
CS(=O)(=O)N1CC(C(=O)NC2CCCC2)Oc2ccc(Cl)cc21 (stereo unspecified)	-13	-31	3	3	-79	·	-2	-8
CCOc1ccc(S(=O)(=O)N(CC)CC(=O)NCc2ccncc2)cc1	6	-10	2	5	-3	i	-22	-8
CN(Cc1cc2cc(F)ccc2[nH]1)Cc1nc(-c2cnccn2)no1	-8	-11	3	6	10	i	-9	-7
O=C(CNC(=O)c1ccc2ccccc2c1)Nc1ncccc1O	·	·	0	2	-69	·	-16	·
Cc1ccc2c(CC(=O)N3CCN(S(=O)(=O)c4cccs4)CC3)coc2c1	0	-16	0	-6	·	i	8	1
CCOc1ccc(OCC)c(S(=O)(=O)NNC(=O)c2c(C)nc3ccccn23)c1	20	-6	2	0	·	i	-18	0
CC(C)(C)N(Cc1ccccc1)C(=O)c1ccc2c(c1)OCCO2	-3	1	3	-3	·	i	·	-7
COc1ccc(CCNC(=O)Cn2nnc(-c3cccs3)n2)cc1OC	0	12	2	3	·	i	·	6
Nc1cccnc1Oc1ccc(F)cc1F	3	-10	0	1	10	i	·	-6
O=C1C(=NO)CC(c2ccccc2)N1c1ccccc1 (stereo unspecified)	·	·	-2	-2	2	·	-7	·
COc1ccc(NS(=O)(=O)c2cccc(NC(=O)C3=NN(c4ccccc4)C(=O)CC3)c2)cc1	6	-9	5	-22	6	i	-1	3
N#Cc1cccc(NC(=O)COC(=O)CCc2ccc(S(=O)(=O)N3CCOCC3)cc2)c1	·	7	0	7	·	·	-3	·
O=C(Cc1ccc(Cl)cc1)Nc1ccc(NC(=O)c2ccccc2)cc1	-11	12	1	4	17	i	·	-4
CCOc1ccc(S(=O)(=O)NCCC(=O)OCC(=O)N2CC(=O)Nc3ccccc32)cc1	-1	-13	2	4	4	i	-14	-9
CNC(=S)N(C)c1ccccc1	17	9	-1	2	·	i	-15	-3
NC1=NS(=O)(=O)NC1c1ccc(F)cc1 (stereo unspecified)	8	4	2	2	-13	i	·	4

Continuation:
SMILES	PABP FP inh	CSC inhib	MT1-MMP act inh	MT1-MMP act inh RFP	Env fusion inh	Rce1 inh	Yeast UUG start	eIF4H FP inh	others
CCc1cccc(C)c1NC(=O)COC(=O)Cc1ccccc1	·	·	-3	2	-2	·	-14	·
COc1ccccc1C1CCN(c2ccc(CO)cc2[N+](=O)[O-])CC1	5	14	3	-2	12	·	4	-2
O=C(COc1ccccc1)Nc1nnc(S(=O)(=O)N2CCCCCC2)s1	-2	4	3	-1	-10	i	-2	3
Cc1ccc(S(=O)(=O)N2CCN(C(=O)c3ccc(N4CCCC4)c([N+](=O)[O-])c3)CC2)cc1	-7	4	1	-2	-4	i	-3	-5
COc1ccc(NC(=O)Nc2ccccc2SC)c(OC)c1	2	5	·	·	-1	i	-7	2
C=CCN(C(=O)CSc1nc2[nH]ncc2c(=O)n1-c1ccccc1OC)c1ccccc1	8	·	-1	-1	-68	·	-4	-4
Cn1c(SCC(=O)NCCc2ccccc2)ncc(C(=O)Nc2ccccc2)c1=O	·	-9	1	-2	-7	i	-14	·
CC1CCN(C(=O)c2ccc3c(c2)NC(=O)/C(=C/c2ccccc2)S3)CC1	·	65	-6	-9	10	i	-17	·
CCCCCCn1c(=O)n2n(c1=O)[C@@H]1CN(S(=O)(=O)c3ccc(C)cc3)C[C@]1(O)[C@@H](OC(=O)Nc1cccs1)C2	·	·	-3	-4	-20	·	-8	·
CSc1ccccc1OCc1cc(C(=O)N(C)CC2COCCO2)no1 (stereo unspecified)	15	4	-2	0	-7	i	7	0
Cc1ccc(-c2nnc(-c3ccc4c(c3)OCO4)o2)cc1	-6	3	-2	-2	-226	i	1	-2
CSc1ccc(CN2C(=O)NC3(CCCCCC3)C2=O)cc1	12	6	0	-2	14	i	·	-8
Oc1ccc(C2N=C(c3ccccc3)NC(c3ccccc3)=N2)cc1	0	32	7	3	-55	·	6	-4
CCN(CC)CCCN1C(=O)C(=O)/C(=C(/O)c2ccc(Cl)cc2)C1c1ccccn1 (stereo unspecified)	-9	5	-4	4	-12	i	-24	16
O=C(NC1CCCCC1)C(c1ccccc1)N(C(=O)c1cccs1)c1ccc2c(c1)OCO2 (stereo unspecified)	8	-9	7	0	·	i	-26	3
C=C(C)CN(CC)C(=O)CN1C(=O)NC(C)(c2ccc3ccccc3c2)C1=O (stereo unspecified)	1	-6	-1	4	-16	i	·	2
O=C1NC2(CCC3(CC2)OCCO3)NN1c1ccc(Cl)cc1	6	37	0	3	7	i	·	16
CN(C(=O)Cn1c(Cl)nc2c1c(=O)n(C)c(=O)n2C)C1CCS(=O)(=O)C1 (stereo unspecified)	·	-16	5	1	-1	i	-13	·
O=C(COC(=O)c1ccc(Cl)c(Cl)c1)NC1CCCC1	8	-9	-2	0	14	i	-22	-1
S=C(Nc1ccccc1Cl)N1CCCCCC1	4	-4	2	5	-14	i	·	5
COc1ccc(C2=NN(CN3C(=O)C(=O)c4ccccc43)C(c3cccc([N+](=O)[O-])c3)C2)cc1 (stereo unspecified)	-12	15	-1	0	11	i	·	5
O=C(O)c1ccc(Cl)c(S(=O)(=O)NCc2ccco2)c1	9	1	-5	-4	·	i	-16	-5
CC(C)(C)CC(=O)NC(=S)Nc1ccccc1C(F)(F)F	-2	-3	-7	-4	-21	i	-23	-4
C=CCNC(=O)c1ccc2nc(Cc3ccc(OC)cc3)oc2c1	·	2	0	-2	-44	i	9	·
O=C1COc2ccc(S(=O)(=O)N3CCN(c4ccccc4F)CC3)cc2N1	5	·	2	-4	0	i	-19	2
CCOC(=O)c1sc(NC(=O)COc2ncnc3ccccc23)c(C(=O)OCC)c1C	-2	-1	-2	-8	8	·	·	-2
Cc1cc(N2CCN(Cc3nc(-c4ccc(F)cc4)oc3C)CC2)cc(C)n1	21	43	2	-4	20	i	·	70	eIF4H FP inh retest=-8;PABP FP inh retest=-1
CC(C)Cn1nc(C(=O)Nc2cccc(S(=O)(=O)N3CCCC3)c2)c2ccccc2c1=O	·	7	5	0	·	·	-11	·
CC(=O)c1ccc2noc(-c3cccc(F)c3)c2c1	10	-5	-4	-4	14	i	-2	8
CC(=O)Nc1ccc2c(c1)C(=Nc1ccccc1)c1ccccc1-2	·	·	2	-3	-26	·	-8	·
